Six1-Eya2 inh: Six1/Eya2 interaction inhibition. Q15475+O00167. activity change, % (concentration not given with the values). AlphaScreen GST-Six1/His-Eya2 binding, biochemical; hits give low values; control for the full effect not named in the record. 360,000 compounds, 0.56% hits; in the data active = activity change below about -65%; inconclusive = about -30% to -65%; inactive = above about -30%; further: on the % scale 0 is the no-effect control and ±100 the full control effect
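GST-Six1 + His-Eya2 (5X stock: 250/500 nM); Tris pH 8.0, 300 mM NaCl, 0.05% BSA, 0.02% Tween 20; GSH donor/Ni acceptor beads; 1 h 37 °C dark; AlphaScreen readout.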
D2 PAM: potentiates the human D2 dopamine receptor allosterically | P14416 | AID 624464 | potentiation, % (concentration not given with the values) | 360,000 compounds, 0.23% hits | DiscoveRx D2 beta-arrestin cells, luminescence, 90 min; 100% = 57 uM dopamine signal; active = potentiation of 50% or more; inconclusive = 30% to 50%; inactive = 30% or less;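 further: tested on top of an EC20 dose of dopamine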
Target sequence (P14416 whole entry, looked up): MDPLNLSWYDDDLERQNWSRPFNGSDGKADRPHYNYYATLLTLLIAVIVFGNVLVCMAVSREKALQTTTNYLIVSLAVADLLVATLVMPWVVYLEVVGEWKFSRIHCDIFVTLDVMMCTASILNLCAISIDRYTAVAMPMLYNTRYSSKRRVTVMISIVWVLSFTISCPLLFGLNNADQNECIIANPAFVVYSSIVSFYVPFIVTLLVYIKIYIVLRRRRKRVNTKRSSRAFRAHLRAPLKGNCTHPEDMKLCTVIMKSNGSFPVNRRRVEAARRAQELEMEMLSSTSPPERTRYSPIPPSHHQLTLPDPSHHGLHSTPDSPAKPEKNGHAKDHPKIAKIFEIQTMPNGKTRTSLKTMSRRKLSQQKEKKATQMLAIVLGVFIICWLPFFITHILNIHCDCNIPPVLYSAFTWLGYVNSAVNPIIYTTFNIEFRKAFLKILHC
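D2 cells co-treated with compound plus 50 nM dopamine (EC20) for 90 min at 37 deg C to detect potentiation. Beta-arrestin recruitment was read as enzyme-fragment luminescence after 1 h at ambient temperature. Full response was set by 57 uM dopamine.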
TRPML1 agonist: human mucolipin-1 channel agonism; TRPML1-expressing cells, Ca2+ dye fluorescence, FDSS; host cell line not named in the record; reference of the full effect not given here; activation, % (no concentration beside the values); 410,000 compounds, 0.12% hits; AID 624414; in the data active = activation above about 50%; inconclusive = about 30% to 50%; inactive = below about 30%; further: 0% is about no effect; the text of the record puts the active cut at 80%
Target sequence (Q9GZU1 whole entry, looked up): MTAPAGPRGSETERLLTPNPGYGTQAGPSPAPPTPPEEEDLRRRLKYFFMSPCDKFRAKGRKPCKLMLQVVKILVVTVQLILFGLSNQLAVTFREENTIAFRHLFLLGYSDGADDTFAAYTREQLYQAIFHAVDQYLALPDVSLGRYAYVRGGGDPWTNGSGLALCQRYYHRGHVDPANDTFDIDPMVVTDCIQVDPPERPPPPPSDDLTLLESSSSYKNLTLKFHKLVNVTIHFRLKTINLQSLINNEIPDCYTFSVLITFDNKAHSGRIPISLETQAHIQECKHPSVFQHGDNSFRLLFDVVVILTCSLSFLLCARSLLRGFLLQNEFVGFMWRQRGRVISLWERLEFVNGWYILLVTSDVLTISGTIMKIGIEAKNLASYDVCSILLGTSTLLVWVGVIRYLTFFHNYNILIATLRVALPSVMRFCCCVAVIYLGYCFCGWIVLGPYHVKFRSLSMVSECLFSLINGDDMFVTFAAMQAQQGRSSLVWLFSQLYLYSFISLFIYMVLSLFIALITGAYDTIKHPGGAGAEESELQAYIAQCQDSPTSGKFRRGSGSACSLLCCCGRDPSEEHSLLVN
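Cells: TRPML1-DL, 1X Tet inducer, ~16 h at 37 degrees C/5% CO2. Dye: ABD Ca8 no-wash + quencher, 45-90 min RT. Read: 10 s baseline, compound add, 110 s agonist phase; 54-4 EC80 (4uM final), 110 s antagonist phase.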
CtBP-E1A inh: CtBP/E1A binding inhibition | AlphaScreen GST-E1A/His-CtBP binding, 1536-well; hits give low values; control for the full effect not named in the record | activity change, % (test concentration not listed) | 340,000 compounds, 0.49% hits; in the data active means activity change below about -65%; inconclusive means about -30% to -65%; inactive means above about -30%; further: on the % scale 0 is the no-effect control and ±100 the full control effect
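GST-E1A and His-tagged CtBP (125 nM each as 5X stock) were preincubated with pin-transferred compound for 2 h at 37 °C in the dark, then glutathione donor and nickel acceptor beads were added for 1 h before AlphaScreen reading.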
TRPML1 inh: human mucolipin-1 channel inhibition; TRPML1-inducible cells, Ca2+ dye fluorescence, FDSS; hits give low values; inhibition of EC80 agonist-evoked calcium signal; activity change, negative = inhibition, % (no concentration beside the values); 390,000 compounds, 0.02% hits; Q9GZU1; AID 624415; in the data active means activity change below about -50%; inconclusive means about -30% to -50%; inactive means above about -30%;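 further: stimulus is agonist 54-4 at its EC80 concentration; on the % scale 0 is the no-effect control and ±100 the full control effect; compound concentration not given in the record; the text of the record puts the active cut at -80%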
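TRPML1-DL cells, Tet-induced overnight (~16 h, 37 °C) at 1,500 cells/well, were loaded with Ca8 no-wash dye plus quencher for 45-90 min at room temperature. Compounds were pinned during FDSS kinetic reading; agonist 54-4 at EC80 (4 uM final) then added.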
TRPV1 PAM: human TRPV1 potentiation | Q8NER1 | TRPV1-expressing cells, Fluo-8 calcium influx, capsaicin EC20 potentiation; host cell line not named in the record; control for the full effect not named in the record | potentiation, % at 8.33 µM | 320,000 compounds, 0.02% hits | AID 540277; active means potentiation above 80%; inconclusive means 30% to 80%; inactive means below 30%; further: 0% is about no effect
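Fluo-8 calcium influx in TRPV1-expressing cells, kinetic read (ex 480/em 520 nm). Compound added and read 3 min for agonist activity, followed by capsaicin at EC20 final and 2 min further read for enhancement.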
Active calls of the source: *; ? = inconclusive; . = not tested or not shown. Random draw from the library. About 0.95% of those tested had a hit in this group.

SMILES	Six1-Eya2 inh	D2 PAM	TRPML1 agonist	CtBP-E1A inh	TRPML1 inh	TRPV1 PAM
Cc1[nH]n(-c2ccccc2)c(=O)c1C=NCC1CCCO1 (stereo unspecified)	1.0	23.3	1.7	.	3.3	0.4
CN(CC(=O)Nc1c(Cl)cccc1Cl)C(=O)c1ccccc1SCC(=O)N1CCCC1	6.3	0.0	0.2	1.2	1.1	-3.5
CN(C)c1cccc(C(=O)NNC(=S)NC2CC3CCC2C3)c1 (stereo unspecified)	6.9	-17.0	-0.4	-1.1	11.1	-4.0
CCCn1c(=O)[nH]c(=O)c2c(C(F)(F)F)cc(-c3ccc(C)cc3)nc21	1.1	-5.6	-0.1	5.4	-1.9	-3.6
CC1CCN(CCCNC(=O)c2ccc(CSCc3cccc(Cl)c3)o2)CC1	-13.0	-21.6	0.3	-19.1	3.7	-6.9
CCOC(=O)C1CCCN(C(=O)/C=C/c2cc(OC)c(OC)c(OC)c2)C1 (stereo unspecified)	7.4	-3.0	-0.1	0.7	-2.8	-4.5
Cc1c(-n2c(O)c(C3=c4ccccc4=NC3=O)sc2=O)c(=O)n(-c2ccccc2)n1C	-0.4	-2.5	2.3	.	3.9	-0.6
O=C(NCc1ccco1)[C@@H]1CSC2c3ccccc3C(=O)N21 (stereo partly specified)	-15.2	-5.1	4.8	-0.3	8.8	13.1
CC1(CCc2ccccc2)NC(=O)N(CC(=O)Nc2ccccc2C#N)C1=O (stereo unspecified)	-4.5	-1.5	-0.3	4.1	26.6	5.0
Cc1cc(NC(=O)CSc2nc3c(c(-c4cccnc4)c2C#N)CCC3)no1	-0.3	-1.3	1.7	0.2	-3.6	1.3
COc1ccc(C(=O)Nc2ccc(C(=O)c3ccccc3)cc2)cc1	-2.7	-12.8	2.9	5.8	12.9	.
CCCc1nnc(NC(=O)CCC(=O)N2CCN(Cc3ccc(F)cc3)CC2)s1	4.5	-0.3	0.7	4.1	-0.6	4.6
COc1ccc(C2=CSC(/N=C/c3ccc(F)cc3)=NN2)cc1	-4.2	-13.7	0.0	6.2	-26.9	7.3
CC(C)c1ccc(CNC(=O)CSCC(=O)Nc2ccc3ccccc3c2)cc1	-2.4	1.4	2.8	-1.9	-8.5	-1.3
CC1Cc2ccccc2N1C(=O)CCNS(=O)(=O)c1cccc2nsnc12 (stereo unspecified)	-2.2	-34.7	-0.5	-5.9	-9.3	5.6
COC(=O)c1ccccc1NC(=O)c1cc2ncc(Br)cn2n1	-10.0	-9.7	1.6	-1.2	13.5	-5.8
Cc1nn(CC(=O)NCCCc2ccccc2)c(C)c1[N+](=O)[O-]	1.1	4.3	-0.3	29.6	7.3	0.7
CCCN(CCC)CCCNC(=O)CN1C(=O)CSc2ccc(S(=O)(=O)N3CCOCC3)cc21	2.1	-6.2	-0.3	.	1.2	-8.5
CC(C)c1ccc(C(C)NC(=S)NC2CCCCC2)cc1 (stereo unspecified)	-11.3	-5.5	-0.3	-6.0	-7.0	-1.8
Cc1ccc(S(=O)(=O)Nc2cc(C)c(O)c(Sc3n[nH]c(C)n3)c2)cc1	-5.7	4.8	-0.1	-5.3	0.9	3.8
Cc1ccc(-c2csc(NC(=O)c3ccc(-c4ccccc4)cc3)n2)o1	-17.3	-7.8	1.0	-11.2	-1.0	25.5
CC(=O)Nc1ccc(C(=O)N/N=C/c2ccncc2)cc1	5.3	-4.3	0.9	15.8	7.6	-2.5
O=C(NCc1ccco1)/C(=C\c1ccc(F)cc1)NC(=O)c1ccco1	3.8	-1.7	0.2	-6.1	-18.6	-0.3
Cc1cccc(C(=O)NNC(=O)C(=O)NC(C)(C)C)c1	4.4	-5.9	0.1	12.4	5.3	11.2
CC(NC(=O)/C(C#N)=C/c1ccc([N+](=O)[O-])o1)c1ccccc1 (stereo unspecified)	-25.9	-28.1	1.6	-19.7	-20.4	23.5
COc1ccccc1C1C(C(N)=O)=C(C)Nc2nc(-c3ccc(Cl)cc3)nn21 (stereo unspecified)	4.8	-2.3	-0.1	-17.9	-0.7	-5.6
C=C(C)Cn1c2ccc(NC(=O)NCC)cc2c(=O)n1C	-0.1	11.0	-0.5	-4.7	.	.
Cc1ccc(NC(=O)CN(C)C(=O)C2COc3ccccc3O2)cc1 (stereo unspecified)	-0.8	-13.9	0.0	.	-6.3	-4.4
Cc1cc(C)c2c(C)c(C(=O)Nc3c(C)n(C)n(-c4ccccc4)c3=O)oc2c1	-4.9	7.5	0.3	-3.1	-3.3	2.6
CC(C)CC(=O)Nc1ccccc1-c1nnn(CC(=O)N2CCOCC2)n1	0.2	-5.5	0.1	-0.2	5.7	-5.9
CC(=O)N/N=C/C1=CCC2CC1C2(C)C (stereo unspecified)	-1.3	-20.3	0.1	-18.3	23.1	1.6
Cc1cccc(NC(=O)c2cccc(N3C(=O)CCC3=O)c2)c1	2.4	-5.8	0.4	4.3	32.4	13.8
COc1cccc(-c2c(-c3cc(OC)cc(OC)c3)n(C)c3ccc(-c4cnc(OC)nc4)cc23)c1	-7.2	-11.3	0.4	-4.4	13.5	3.5
COc1ccc(-c2c3c(cc(C)[n+]2[O-])oc2ccc(OC)cc23)cc1	4.0	-0.8	-0.4	2.8	16.7	-5.7
CC(C)(C)c1ccc(S(=O)(=O)NC(=O)C2(C)CCN2C(=O)C2(c3ccc(Cl)cc3)CC2)cc1 (stereo unspecified)	-0.8	-5.3	0.6	3.8	.	.
CC1CCN(CCCCOc2ccccc2[N+](=O)[O-])CC1	24.7	-27.8	-0.6	47.9	-7.3	0.1
CC(C)(C)C(=O)NC(=S)Nc1ccc(Cc2ccncc2)cc1	-2.0	3.4	-1.1	-2.7	5.2	-14.3
COc1ccc(-c2nn(-c3ccccc3)cc2CN2CCCO2)c(F)c1	-2.0	-4.0	-0.6	-5.4	-7.0	-16.5
CCCCCCN(C(=O)CCl)c1ccccc1	-3.0	-3.7	1.0	.	17.0	-18.4
CCOC(=O)C1CCCN(C(=O)Cn2nc(C)c3c(C)n(-c4ccccc4)nc3c2=O)C1 (stereo unspecified)	2.5	-5.7	-0.9	-11.9	-4.7	2.8
O=C(NCCCN1CCOCC1)c1ccc(Cl)cc1Cl	-3.9	-0.4	-0.5	.	30.7	5.2
O=C(Nc1ccc(Cl)cc1)Nc1nnc(CSCc2ccccc2)s1	8.2	-5.8	1.0	-21.5	-8.6	0.8
CCCOC(=O)c1c(NC(=O)c2cnn3c2NC(c2ccccc2)CC3C(F)(F)F)sc2c1CCCC2 (stereo unspecified)	-2.7	-4.7	-0.3	8.4	2.6	-0.5
CCc1ccccc1-n1nnnc1SCC(=O)Nc1cc(C)on1	5.5	2.6	0.3	-7.3	-10.6	5.1
Cn1c(CNc2ccccc2)nc2ccccc21	-3.1	-26.9	-1.5	1.2	-0.2	2.3
COc1ccc(-n2c(C)nnc2SCC(=O)Nc2ccccc2F)cc1	8.9	-4.0	0.3	-1.3	-3.9	2.0
Cc1ccc(S(=O)(=O)N2CCN(C(=O)COC(=O)/C=C/c3cccc(Cl)c3)CC2)c(C)c1	-8.4	-1.2	-0.4	?	1.6	.
CCN(CC)C(=O)c1cccc(-c2csc(C(NC(C)=O)c3ccccc3)n2)c1 (stereo unspecified)	1.1	-0.8	-0.5	0.0	.	.
COCCN1CCCC(CNCc2cn(C)nc2-c2ccc(Oc3ccccc3)cc2)C1 (stereo unspecified)	0.8	-18.3	0.7	-16.8	16.4	-0.9
CCCCCCCCNc1ncnc2[nH]ncc12	0.8	0.6	2.4	3.2	15.6	.
CCC(C)C(NC(=O)c1ccccc1NC(=O)c1ccco1)C(=O)O (stereo unspecified)	3.8	-12.8	-0.4	-0.3	-7.6	-5.4
COc1ccc(-n2c(C)cc(SC)c(C(C)=O)c2=S)cc1	-1.4	-8.9	-0.4	0.1	-10.3	-1.1
COc1ccc(CCN(C)CCN2C(=O)c3ccccc3C2=O)cc1OC	3.7	-0.2	0.2	6.5	8.1	4.1
COc1ccc(NC(=O)CSc2n[nH]c(=O)n2C2CC2)cc1OC	5.9	-3.9	0.0	.	-0.3	8.6
Cc1ccccc1CS(=O)(=O)CCC(=O)NCCCN1CCN(c2ccccc2F)CC1	7.6	-28.3	0.6	-1.5	8.0	-0.1
CCOc1ccc(-c2cn3ccccc3n2)cc1[N+](=O)[O-]	-9.1	4.2	0.5	-21.0	-15.2	-18.5
CCCNC(=O)CCn1cc(-c2ccc(OC)cc2)nc1-c1ccncc1	-15.2	-8.2	-0.2	-13.0	3.8	-7.0
CC1(c2ccc(OC(F)F)cc2)NC(=O)N(CC(=O)NCCC2=CCCCC2)C1=O (stereo unspecified)	9.7	-2.0	4.2	0.5	21.9	-9.7
CCOC(=O)CSC1=C(C#N)C(c2ccco2)C(C(=O)Nc2cccc(C(F)(F)F)c2)=C(C)N1 (stereo unspecified)	2.1	12.6	1.1	3.6	-7.4	-6.8
c1ccc(-c2noc(CCC3CCCC3)n2)cc1	11.2	-11.7	-0.2	16.3	-13.8	1.9
The list goes on:
SMILES	Six1-Eya2 inh	D2 PAM	TRPML1 agonist	CtBP-E1A inh	TRPML1 inh	TRPV1 PAM
CCOc1ccc(C(CCc2ccccc2)NC(=O)c2ccccc2F)cc1OCC (stereo unspecified)	0.3	-11.7	4.2	4.9	3.1	-9.1
CC(=O)Nc1ccc(NC(=O)c2cc(C3CC3)nc3c2cnn3C(C)C)cc1	-0.1	-64.7	1.2	-1.4	7.3	15.4
CC1(C)CC(=O)N(c2cc(Cl)cc(Cl)c2)C(=O)C1	-2.8	-2.6	-0.5	0.2	55.9	-5.9
CC(=O)c1ccc(OCC(=O)NC(=O)NC2CCCCC2)cc1	6.2	-15.3	0.0	-1.8	-7.7	3.0
CC[C@H](NC(=O)c1c(C)c(-c2ccccc2)nc2ccccc12)c1ccccc1	-3.1	-4.1	-0.6	0.7	4.8	-10.9
COc1ccc(N/C=C/C(=O)c2ccc(C)cc2)c([N+](=O)[O-])c1	-28.8	8.5	-0.7	-21.5	21.3	.
Cc1ccc2c(c1)N(CC(=O)NCCCN1CCOCC1)C(=O)C(C(C)C)O2 (stereo unspecified)	-2.7	-18.5	0.3	-3.1	-18.1	-16.8

Record cards (already shown).
`CC[C@H](NC(=O)c1c(C)c(-c2ccccc2)nc2ccccc12)c1ccccc1` in the list: Six1-Eya2 inh = -3.1; D2 PAM = -4.1; TRPML1 agonist = -0.6; CtBP-E1A inh = 0.7; TRPML1 inh = 4.8; TRPV1 PAM = -10.9
`CC(=O)c1ccc(OCC(=O)NC(=O)NC2CCCCC2)cc1` in the list: Six1-Eya2 inh = 6.2; D2 PAM = -15.3; TRPML1 agonist = 0.0; CtBP-E1A inh = -1.8; TRPML1 inh = -7.7; TRPV1 PAM = 3.0
`COc1ccc(N/C=C/C(=O)c2ccc(C)cc2)c([N+](=O)[O-])c1` in the list: Six1-Eya2 inh = -28.8; D2 PAM = 8.5; TRPML1 agonist = -0.7; CtBP-E1A inh = -21.5; TRPML1 inh = 21.3; TRPV1 PAM = .
